# Bioassay records deposited in PubChem BioAssay by National Center for Advancing Translational Sciences (NCATS).
# Menin MLL FP FL = inhibitors of human menin-MLL interaction, wild-type MLL peptide. Fluorescence polarization, fluorescein-MLL peptide displacement from menin. 290,000 tested, under 10 active. FP activity change, % at 61.4 µM; inconclusive = falling polarisation curve, or a change in total fluorescence; inactive = total fluorescence flat and polarisation flat or rising; no compound was filed as active; the % refers to the polarisation; negative = inhibition;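 also: % of control where 0% means no effect; inhibitors lower the polarisation; unlabelled MLL peptide was the positive control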
# TRPV1 PAM = enhances activation of the human vanilloid receptor TRPV1; AID 540277; actives 0.02% (n = 320,000); Q8NER1; TRPV1-expressing cells, Fluo-8 calcium influx, capsaicin EC20 potentiation; host cell line not named in the record; control for the full effect not named in the record; potentiation, % at 8.33 µM; active means potentiation above 80%; inconclusive means 30% to 80%; inactive means below 30%; also: 0% is about no effect
# Target sequence (Q8NER1 whole entry, looked up): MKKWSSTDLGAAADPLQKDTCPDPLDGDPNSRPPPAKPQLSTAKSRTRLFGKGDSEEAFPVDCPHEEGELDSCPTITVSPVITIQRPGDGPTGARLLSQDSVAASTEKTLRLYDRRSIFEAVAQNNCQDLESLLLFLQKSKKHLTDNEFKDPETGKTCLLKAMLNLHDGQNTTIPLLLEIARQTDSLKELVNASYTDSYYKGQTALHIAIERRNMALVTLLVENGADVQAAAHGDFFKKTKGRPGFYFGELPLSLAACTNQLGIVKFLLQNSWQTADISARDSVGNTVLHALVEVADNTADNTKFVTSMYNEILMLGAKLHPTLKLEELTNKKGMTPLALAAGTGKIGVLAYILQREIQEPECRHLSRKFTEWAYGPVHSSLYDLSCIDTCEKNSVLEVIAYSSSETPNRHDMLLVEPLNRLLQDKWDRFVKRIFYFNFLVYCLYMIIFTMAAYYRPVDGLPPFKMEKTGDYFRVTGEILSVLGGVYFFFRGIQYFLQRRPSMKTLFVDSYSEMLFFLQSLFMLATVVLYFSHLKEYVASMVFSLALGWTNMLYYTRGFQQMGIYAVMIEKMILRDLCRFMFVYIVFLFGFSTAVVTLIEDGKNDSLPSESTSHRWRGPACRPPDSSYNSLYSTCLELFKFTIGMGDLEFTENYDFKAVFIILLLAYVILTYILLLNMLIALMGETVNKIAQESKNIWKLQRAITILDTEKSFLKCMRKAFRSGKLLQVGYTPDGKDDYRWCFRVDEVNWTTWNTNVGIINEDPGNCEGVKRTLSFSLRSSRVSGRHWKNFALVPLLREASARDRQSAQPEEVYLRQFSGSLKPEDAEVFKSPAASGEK
#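 Fluo-8 calcium influx in TRPV1-expressing cells, kinetic read (ex 480/em 520 nm). Compound added and read 3 min for agonist activity, followed by capsaicin at EC20 final and 2 min further read for enhancement.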
# gsp antagonist = antagonizes gsp, the McCune-Albright syndrome mutation; gsp-mutant cells, cAMP HTRF, 30 min; control for the full effect not named in the record; Potency, µM (highest dose often 76.9 µM), inactives show at the top dose activity change, negative = inhibition, hits mostly inhibitors; actives 0.4% (n = 340,000); AID 624288; active = falling curve of any shape with a large fitted effect; inconclusive = falling curve, mostly with a smaller effect; inactive = flat or rising curve; cell line not stated here;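 also: intracellular cAMP measured with PDE inhibitor Ro 20-1724 present during compound exposure; potency is read from the fitted curve at half-maximal effect; % is scaled to controls: 0 for no effect and ±100 for the full control effect; nearly all actives have a fitted effect of over 65% in size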
#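 Measurement of cellular cAMP by homogeneous time-resolved fluorescence following a 30 min compound exposure at 37C. The PDE inhibitor […] was present throughout; the assay buffer was DPBS with 0.05% BSA and 0.005% Tween 20.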
# Sfp inh = inhibitors of Bacillus subtilis Sfp phosphopantetheinyl transferase; Q9F4F7; Biochemical Sfp PPTase activity, qHTS; Potency, µM, for inactives: max response, negative = inhibition, most hits filed as inhibitors; actives 3.5% (n = 310,000); AID 1490; active = well fitted inhibition curve with a large enough effect; inconclusive = small, poorly fitted or top-dose-only effect, or another doubt; inactive = no such curve, though single readings can be large or run the other way;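 also: the enzyme is Sfp with the accession as filed and its product quenches rhodamine fluorescence; potency is read from the fitted curve at half-maximal effect; 0% = enzyme reaction without inhibitor and -100% = no enzyme wells; top concentration of the series not given in the record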
#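 Fluorescence-quenching assay: 15 nM Sfp-PPTase preincubated 15 min at room temperature with compound, then 5 uM rhodamine-CoA and 12.5 uM BHQ-2-labelled YbbR peptide added. Fluorescence (ex 525/em 598 nm) read at start and after 30 min; difference gives rate.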
# ClpP mod = qHTS Assay for Activators of ClpP; ATP-dependent Clp protease proteolytic subunit (Bacillus subtilis (strain 168)), P80244; purified B. subtilis ClpP, FRET peptide cleavage, 20 min; Potency, µM (titrated, usually from 57.5 µM), for the others: at the top dose activity change, negative = active; actives 1.9% (n = 340,000); AID 651965, 2013; active = well fitted falling curve with a large enough effect; inconclusive = small, poorly fitted or top-dose-only effect; inactive = no such curve, though single readings can be large or run the other way; also: potency is read from the fitted curve at half-maximal effect; the source files actives as falling curves though it sought activators and does not explain the sign; nearly all actives have a fitted effect of over 65% in size; many hits overshoot -100%
# Target sequence (P80244 whole entry, looked up): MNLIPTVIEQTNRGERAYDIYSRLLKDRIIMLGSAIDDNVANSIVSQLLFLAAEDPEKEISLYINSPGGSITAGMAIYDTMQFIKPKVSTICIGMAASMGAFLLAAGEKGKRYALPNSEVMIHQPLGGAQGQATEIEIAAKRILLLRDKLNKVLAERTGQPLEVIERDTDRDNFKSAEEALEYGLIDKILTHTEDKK
#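 Buffer: 100 mM Tris/HCl pH8, 100 mM KCl, 0.05% low protease BSA, 2.5% glycerol, 0.01% Tween-20. ClpP 10 microg/mL final; 20 min RT; delta FRET normalized to ADEP and DMSO controls.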
# CtBP-E1A blk = CtBP/E1A binding inhibition; AlphaScreen GST-E1A/His-CtBP binding, 1536-well; stronger effect = lower value; control for the full effect not named in the record; activity change, % (test concentration not listed); actives 0.49% (n = 340,000); AID 651724; in the data active means activity change below about -65%; inconclusive means about -30% to -65%; inactive means above about -30%; also: % is scaled to controls: 0 for no effect and ±100 for the full control effect; compound concentration not given in the record
#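 Steps: dispense buffer (Tris pH 8.0, NaCl 300 mM, TCEP 1 mM, BSA, Tween 20); add 5X protein mix (GST-E1A, His-CtBP, 125 nM each); pin 23 nL compound; 2 h at 37 °C, dark; add 5X beads (50 ug/mL); 1 h; read.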
# gsp ag = gsp mutant agonism | gsp mutant cells, cAMP HTRF, 30 min; control for the full effect not named in the record | Potency, µM (doses to about 76.9 µM), without a hit: top-dose activation (cAMP increase), hits mostly activators | actives 0.13% (n = 340,000) | AID 624287; active = well fitted activation curve with a large enough effect; inconclusive = small, poorly fitted or top-dose-only effect, or another doubt; inactive = no such curve, though single readings can be large or run the other way; cell line not stated here;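 also: phosphodiesterase inhibitor Ro 20-1724 added with compounds to block cAMP breakdown; potency is read from the fitted curve at half-maximal effect; nearly all actives have a fitted effect of over 60% in size; about a fifth of the inactives were tested at one dose only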
#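 Cells stably selected in G418 were plated at 2000/well, grown 16-24 hr, then given compounds in DMSO with the PDE inhibitor […] (300 uM solution added) for 30 min at 37C; cAMP was read by HTRF.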
# * = called active by the depositor; ? = inconclusive; · = no result given; & = joins results of further samples; [ ] = remark or other dose. Rows are unselected. Share with any hit: about 5.3%.
compound	gsp antagonist	CtBP-E1A blk	gsp ag	Sfp inh	ClpP mod	Menin MLL FP FL	TRPV1 PAM
CCCSc1nc2c(c(=O)n(C)c(=O)n2C)n1Cc1ccc(C)cc1	8.2%	-1.2	-27.2%	-10.1%	0.7%	2.6	-1.0
CSc1nc2nc3c(cc2c(=O)n1-c1ccc(C)cc1)COC(C)(C)C3	1.7%	-0.4	19.9%	-6.4%	-20.2%	-3.9	-1.4
Cc1cccc(NC(=O)C2CC(O)CN2C(=O)OCc2ccccc2)c1 (stereo not given)	10.4%	5.4	1.8%	12.0%	1.1%	-1.2	6.2
COc1ccc(C2=NS(=O)(=O)N(C)C(C(=O)N3CCCCC3)=C2)cc1OC	1.2%	5.8	2.8%	8.7%	-0.1%	-3.9	-15.9
CC(=O)C1=C(O)C(=O)N(c2cc(C(C)(C)C)on2)C1c1ccc(C(C)C)cc1 (stereo not given)	-8.1%	0.1	-2.7%	3.6%	2.0%	3.4	2.4
O=C(OCc1cn([C@@H]2C[C@H](c3ccc(Cl)cc3)N(C(=O)C3CCCCC3)C[C@H]2O)nn1)c1ccccc1	·	6.2	-2.8%	·	0.4%	·	·
CCOC(=O)CN1N=C(/C=C/c2ccc(OCC)cc2)CCC1=O	-2.9%	4.8	?	-3.4%	·	-2.7	5.3
O=C(NCC(c1cccs1)N1CCOCC1)c1cn(-c2ccccc2)nc1-c1ccc(Cl)cc1 (stereo not given)	-28.6%	10.7	-19.1%	·	-6.9%	·	-2.1
CC1C(=O)N2CCCc3cc(NC(=O)c4ccccc4C(F)(F)F)cc1c32 (stereo not given)	11.9%	10.7	-18.8%	·	-1.2%	·	4.3
O=[N+]([O-])c1ccc(C[n+]2ccccc2)cc1	3.9%	-15.6	-33.2%[inhibitor]	·	-3.2%	·	-24.5
COC(=O)C1=C(C)NC(C)=C(C(=O)OC)C1c1ccc(-c2cc(Cl)ccc2Cl)o1	-13.9%	10.8	-5.9%[15.4 µM]	?	-0.1%	3.7	4.0
Cc1cc(C(=O)Nc2nnc(-c3ccccc3)s2)no1	?	-0.5	-0.4%	-2.2%	-2.1%	0.4	10.5
N#CC1=C(N)Oc2n[nH]c(-c3ccccn3)c2C1c1c(F)cccc1Cl (stereo not given)	4.8%	-5.2	1.2%	2.1%	-3.0%	1.8	8.2
C/C(=N\OCC(=O)Nc1cc(C)cc(C)c1)c1ccc2c(c1)OCCO2	-1.7%	1.9	-6.8%	-15.8%	-2.4%	0.8	0.3
CCCC(=O)Nc1cccc(-c2nc3ccccc3o2)c1	0.9%	1.5	0.5%	2.9%	-0.2%	0.9	-14.8
COP(=O)(OC)c1ccc(NCc2cc(O)ccc2O)cc1	-5.8%	0.0	-27.2%	·	-0.3%	·	·
Cc1nn(C)c(C)c1CN(Cc1nc(-c2ccc(F)cc2F)oc1C)C1CC1	-16.8%	-1.1	-3.7%	?	-2.7%	0.3	-6.8
O=[N+]([O-])c1ccc(NN=Cc2ccccc2)nc1	7.7%	-15.0	-23.1%	·	-2.8%	·	·
CN(CC(=O)Nc1cccnc1)S(=O)(=O)c1ccc(Br)cc1	8.8%	-1.5	-2.0%[15.4 µM]	-11.3%	1.5%	·	?
CC1CCCCC12NC(=O)N(CC(=O)Nc1ccc(N3CCCCC3)cc1)C2=O (stereo not given)	-0.6%	1.0	-67.6%[inhibitor]	·	-18.8%	·	-4.8
O=C(COC(=O)C1C2CC3OC(=O)C1C3C2)Nc1ccc(Cl)cc1 (stereo not given)	6.5%	4.0	-2.4%	4.0%	·	0.4	-5.8
CCCc1ccc(OCc2nc(-c3ccc(NC(=O)c4ccco4)cc3)no2)cc1	-9.8%	0.0	5.9%	-0.5%	-1.0%	0.8	-28.2
COc1ccc(C(=O)N2CCC(CCC(=O)Nc3cccc(C)c3)CC2)cc1	-14.6%	-3.8	-20.6%	4.6%	-2.1%	·	10.3
O=C(CCNS(=O)(=O)c1ccccc1)OCc1nc2ccsc2c(=O)[nH]1	9.8%	2.1	?	·	-0.2%	·	6.5
Cc1cc(NC(=O)CCN2CCN(CCO)CC2)ccc1Br	2.8%	6.1	-52.8%[inhibitor]	-22.6%	·	-6.1	8.0
O=C(CCCSc1nnc(SCCCC(=O)c2ccc(F)cc2)s1)c1ccc(F)cc1	-15.7%	49.8	-48.6%[inhibitor]	2.1%	0.6%	9.0	3.1
CCCCCOC(=O)Nc1ccc(S(=O)(=O)Nc2cccc([N+](=O)[O-])c2)cc1	-21.2%	4.8	12.6%[15.4 µM]	36.8%	-1.4%	1.9	23.9
COc1ccc(OC)c(NC(=O)COC(=O)c2nc(Cl)ccc2Cl)c1	-8.2%	3.5	-18.7%	21.3%	·	3.2	25.5
Cc1cccc(NC(=O)CNC(=O)CN2C(=O)NC3(CCCc4ccccc43)C2=O)c1C (stereo not given)	-0.7%	4.8	22.5%[15.4 µM]	·	2.1%	·	10.8
Cc1cc(C(=O)NN)c(C)o1	-3.1%	-12.4	-0.1%	10.4%	-2.0%	1.3	1.6
CCOc1ccccc1/C=C(\C(=O)O)c1ccc(S(=O)(=O)N2CCCCC2)s1	-28.2%	9.6	30.3%	·	-18.0%	·	·
Cc1ccc(N/N=C/c2ccc(N3CCOCC3)cc2)cc1C	-13.5%	-1.9	7.2%	?	-13.7%	2.7	0.7
CCCCNc1nc2ccccc2nc1NS(=O)(=O)c1cccs1	-15.3%	-3.5	22.8%	10.8%	?	2.5	11.5
Cn1cc([N+](=O)[O-])c(C(=O)NCc2cc3cc(Cl)ccc3[nH]2)n1	4.7%	3.9	-28.5%	21.6%	2.2%	2.1	9.6
CC1CCc2c(C(=O)Nc3nccs3)csc2C1 (stereo not given)	-1.7%	-4.8	-7.9%	9.0%	-0.2%	4.9	-25.9
O=C(Cn1c2ccc(F)cc2c2nc3n(c(=O)c21)CCS3)Nc1ccc(Cl)cc1F	-21.9%	-1.2	18.6%[15.4 µM]	?	0.7%	?	-0.2
COc1ccc(-c2cc(C(=O)N3CCN(c4ccccc4)CC3)no2)cc1OC	1.7%	-22.9	-10.9%	-12.5%	-1.5%	-1.0	-6.4
CCOCCN(C(=O)c1ccccc1Cl)c1cccc(C)c1C	-19.4%	-5.3	1.2%[15.4 µM]	11.7%	·	-0.9	0.3
O=C(c1ccccc1F)N1CCN(C(=O)C(c2ccccc2)c2ccccc2)CC1	-7.2%	6.8	6.7%[15.4 µM]	16.6%	-2.4%	0.2	14.5
O=C(C[n+]1cc(Br)cc2ccccc21)c1ccc(Cl)cc1	-9.9%	-10.6	-12.8%[15.4 µM]	-6.6%	-0.3%&-2.6%	8.9	4.6
O=C(Nc1ccc(-c2csc(Nc3ccccc3)n2)cc1)c1ccccc1	2.4%	-9.4	·	5.5%	15.0%	3.2	8.8
COc1ccccc1NC(=O)C(C)OC(=O)c1ccc(-n2cnnn2)cc1 (stereo not given)	-8.2%	-1.7	-13.1%[15.4 µM]	·	·	·	-10.2
O=C(OCC(=O)N1CCC(Cc2ccccc2)CC1)c1ccccc1F	3.9%	·	5.8%	·	-1.8%	·	-13.2
COCCn1c(N)c(N(Cc2ccccc2)C(=O)c2ccc3ccccc3c2)c(=O)[nH]c1=O	1.6%	-5.0	1.5%[15.4 µM]	10.3%	-9.0%	-3.6	-0.9
O=C1CCCC(=O)C1=C1SCCS1	9.7%	11.1	-0.6%	22.7%	0.3%	0.5	2.6
O=C(c1cc([N+](=O)[O-])ccc1N1CCOCC1)N1CCN(S(=O)(=O)c2ccc(F)cc2)CC1	-8.5%	-12.3	?	·	-0.7%	·	8.3
CCOc1cc(/C=C2\C(=O)N(CCC#N)N=C2C)ccc1OCC(N)=O	-11.9%	·	10.3%	26.6%	7.0%	0.1	3.5
Cc1ccc(Sc2nc([N+](=O)[O-])nn2C)cc1	18.6%	2.1	-20.3%	15.5%	-3.2%	5.5	2.2
COc1ccc2sc(-c3ccccc3OC)c(-c3ccc(OC)c(F)c3)c2c1	-3.3%	2.4	?	·	?	·	7.5
CCN(CC)CCOCCOc1ccc(Cl)c2ccccc12	11.2%	-8.1	-14.7%	-7.0%	-29.8%	3.6	6.5
Cc1c(/C=N\NC(=O)c2c[nH]c3ccccc23)cnn1C	2.7%	-10.0	19.4%	8.1%	·	2.7	0.1
COC(=O)c1[nH]c2ccccc2c1CN1CCOCC1	8.8%	·	-30.3%[inhibitor]	17.3%	-25.9%	-1.2	24.4
CCc1ccc(C2C(C#N)=C(N)N(N(C)C)C3=C2C(=O)CCC3)cc1 (stereo not given)	1.4%	3.3	-1.9%	6.7%	0.3%	-0.4	?
O=C(CSc1nc2sc3c(c2c(=O)[nH]1)CCC3)NCCO	0.1%	-3.9	0.8%[15.4 µM]	25.9%	·	1.5	1.5
CCN1C(=O)c2n[nH]c(C(=O)OC)c2C1=O	0.5%	0.2	0.2%	19.1%	-4.0%	-0.7	-7.8
CSc1ccccc1NC(=O)Cn1nc([N+](=O)[O-])c(Cl)c1C	4.6%	0.6	7.5%[15.4 µM]	-0.3%	·	4.2	6.7
COc1cc(/C=N/NC(=O)c2cc[n+]([O-])cc2)cc(OC)c1OC	10.5%	0.1	-4.5%[15.4 µM]	11.2%	-0.4%	0.5	-7.9
Cc1cc(C)cc(N(C(=O)CCC(=O)Nc2cc(C)on2)C(C(=O)NC2CCCC2)c2ccco2)c1 (stereo not given)	-5.0%	-8.8	-41.4%[inhibitor]	8.1%	·	2.8	-8.3
CCC(=O)NNC(=O)c1c(O)c2ccccc2[nH]c1=O	8.2%	-2.2	-24.3%	7.8%	·	-2.0	1.6
O=C1/C(=C/c2ccccc2)SC(=S)N1N1C(=O)C2CC2C1=O (stereo not given)	-13.9%	·	-26.8%	-16.2%	0.8%	6.4	-0.1
